VDR inhibitor: blocks the human vitamin D receptor. P11473. 0.93% of 400,000 active. AID 504847. Potency, µM, without a hit: max response, negative = inhibition, usual class: inhibitors. VDR-SRC2-3 peptide fluorescence polarization, 2 h; active means well fitted inhibition curve with a large enough effect; inconclusive means small, poorly fitted or top-dose-only effect, or another doubt; inactive means no such curve, though single readings can be large or run the other way; further: series mostly up to about 120 µM
Target sequence (P11473 whole entry, looked up): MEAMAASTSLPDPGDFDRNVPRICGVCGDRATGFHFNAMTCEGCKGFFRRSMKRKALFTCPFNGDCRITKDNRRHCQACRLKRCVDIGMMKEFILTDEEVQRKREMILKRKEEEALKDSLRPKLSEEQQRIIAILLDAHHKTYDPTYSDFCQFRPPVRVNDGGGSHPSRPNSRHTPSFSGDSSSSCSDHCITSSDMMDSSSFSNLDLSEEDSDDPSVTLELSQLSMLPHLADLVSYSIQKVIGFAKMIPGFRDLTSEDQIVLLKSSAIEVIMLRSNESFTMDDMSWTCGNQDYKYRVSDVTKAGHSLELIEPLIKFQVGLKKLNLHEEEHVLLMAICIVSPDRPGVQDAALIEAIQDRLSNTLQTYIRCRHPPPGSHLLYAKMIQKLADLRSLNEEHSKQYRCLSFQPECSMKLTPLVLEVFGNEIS
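Two reagent solutions held at 4 deg C in the dark were dispensed, compounds pinned at 23 nl, and the mixture incubated 2 h at room temperature. Read-out: fluorescence polarization of VDR–SRC2-3 peptide binding.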
* = called active by the depositor; ? = inconclusive; & = joins results of further samples. On the % scale 0 is the no-effect control and ±100 the full control effect; potency means the concentration at half of the fitted maximal effect. Some of the compounds tested; the hit share may differ from the screen's.

SMILES	VDR inhibitor
O=C(Nc1ccc(S(=O)(=O)Nc2ncccn2)cc1)c1cc(=O)c2ccccc2o1	6%
CC(=O)Nc1ccccc1C(=O)N1CCN(c2cccc(C)c2C)CC1	-3%
NC(=O)c1c(NC(=O)C2CCCO2)sc2c1CCCC2 (stereo unspecified)	-28%
O=C(c1ccc(CNS(=O)(=O)c2ccc(Br)cc2)cc1)N1CCCCCC1	-15%
COc1ccc(C2=NOC(C(=O)NCCCN3CCOCC3)C2)cc1 (stereo unspecified)	-26%
CS(=O)(=O)N(CC(=O)NCCSCc1ccccc1)c1ccccc1	20%
CCOc1ccc(-c2nnn(CC(=O)NCc3ccco3)n2)cc1OCC	0%
CCOc1ncccc1C(=O)Nc1cc(S(=O)(=O)N2CCCCC2)ccc1OC	9%
NCCCC[C@@H](C(=O)N1CCNCC1)n1cc(CCC(=O)O)nn1	-6%
COc1ccc(-c2nc3cccc(C)n3c2Nc2ccc(C)cc2)cc1	-9%
CC(NC(=O)[C@H](C)NC(=O)C1CC(=O)N(c2ccc3c(c2)OCO3)C1)c1ccccc1 (stereo partly specified)	-7%
CCCSCCCNC(=O)C1CCN(C(=O)c2cnn(-c3ccccc3)c2-n2cccc2)CC1	6%
CCc1nnc2c(Nc3ccc(N(CC)CC)cc3C)nc3ccccc3n12	-3%
Cc1cccc(OCC(=O)NCC(=O)N/N=C/c2ccc([N+](=O)[O-])cc2)c1	4%
C=CCn1c(SCC(=O)Nc2cc(C)on2)nnc1-c1ccccc1F	10%
COc1ccc(N2CCN(C3CCCCC3NS(=O)(=O)c3ccc(Cl)cc3)CC2)cc1 (stereo unspecified)	5%
O=c1[nH]nc(-c2cccs2)c2ccccc12	10%
COc1cc(OC)cc(C(=O)Oc2ccc(/C=N/Nc3nc4ccccc4s3)cc2OC)c1	2%
CCOC(=O)C1=C(C)NC2=C(C(=O)CC(c3cccs3)C2)C1c1cccs1 (stereo unspecified)	-3%
COc1ccc(Nc2ccc([N+](=O)[O-])c3nonc23)c(OC)c1	?
CCOC(=O)c1c(NC(=O)C2CC2)sc(C)c1CC	-22%
O=S(=O)(c1ccccc1Cl)N1CCN(c2nc(-c3ccccc3)nc3ccccc23)CC1	-17%
C=C(Br)Cn1c(CCCC)nc2ccccc21	1%
Cc1ccc(N=C2N=C(N)c3ccccc32)cc1C	?
CCc1ccc(NC(=O)C2CC(=O)N(C(C)C)C2)cc1 (stereo unspecified)	0%

The list continues:
SMILES	VDR inhibitor
COc1ccc(S(=O)(=O)N2CCC(C(=O)Nc3ccc(Oc4ccccc4)cc3)CC2)cc1	-3%
CCN(CC)c1ccc(NC(=O)CN2CCN(CC(=O)Nc3ccccc3OC)CC2)cc1	-12%&-7%
COc1ccc(-c2[nH]ncc2/C=N/NC(=O)c2ccc(Br)cc2)c(OC)c1	-28%
COP(C)(=O)c1c(C)nn(-c2ccccc2)c1C (stereo unspecified)	-6%
COc1cccc(NC(=O)CN(C)C(=O)c2cc3c(s2)CCC3)c1	-7%
Cc1ccc(NC(=O)NC2CCN(S(=O)(=O)c3ccc(F)cc3)CC2)cc1	16%
CC1=CC2=NC(=O)/C(=C/c3coc4ccccc4c3=O)C(=N)N2O1	6%
CN(C(=O)c1ccc(NC(=O)Cc2ccc(NC(=O)C3CCN(C(=O)c4ccccc4)CC3)cc2)cc1)C1CC1	-16%
Cn1c(=O)cc(NCCc2ccccc2)[nH]c1=O	11%
COc1ccc2c(c1)CC(C(=O)Nc1ccc(OC)cc1OC)CO2 (stereo unspecified)	5%
Cc1cc(C(=O)COC(=O)c2ccc(Cl)c(S(N)(=O)=O)c2)c(C)n1CC1CCCO1 (stereo unspecified)	-12%
N#Cc1ccc(NCCc2ccccn2)c([N+](=O)[O-])c1	-16%
COc1ccc(/C=N/NC(=O)c2cc(C)on2)c2ccccc12	3%
COC(=O)Cn1c2ccccc2c2nc(C)sc21	-12%
CC(C)N(Cc1ccccc1)C(=O)C1CCCN(c2ncnc3onc(-c4ccc(F)cc4)c23)C1 (stereo unspecified)	12%
COc1cc2ccc3c(CCN(C)C)cc(OC)c(OC)c3c2cc1OC	-15%
O=C(NC1c2ccccc2-c2ccccc21)c1ccco1	-11%
COc1cc(/C=C/C(=O)OCC(=O)Nc2cc(S(=O)(=O)N3CCOCC3)ccc2Cl)cc(OC)c1OC	8%
CCC(NC(=O)NCc1cccnc1)(C(F)(F)F)C(F)(F)F	5%
Cc1ccc(Cn2ccc(NC(=O)c3cc(C)on3)n2)cc1	3%
N#C/C(=C\c1cccc(Cl)c1)C(=O)c1ccccc1	?
CCC(C)NC(=O)c1c(N)n(/N=C/c2cccnc2)c2nc3ccccc3nc12 (stereo unspecified)	-5%
CCCNC(=O)C(Cc1cccc(C#N)c1)NC(=O)c1cccc([N+](=O)[O-])c1 (stereo unspecified)	8%
O=C(NCCOc1ccccc1)C(=O)c1c[nH]c2ccccc12	2%
COc1ccccc1C(=O)Nc1c(C(=O)c2ccccc2)oc2ccccc12	3%

The listing continues:
SMILES	VDR inhibitor
COc1ccc(NC(=O)CN2C(=O)CC(c3ccc(C)c(C)c3)=Nc3ccccc32)cc1OC	14%
O=C(CCCN1C(=O)C2CCCCN2C1=O)N1CCN(c2ccc([N+](=O)[O-])cc2)CC1 (stereo unspecified)	-1%
CCN(CC)c1ccc(NC(=O)C(C)C)cc1	4%
CCCCCN(C(=O)CCC(=O)OC(C)C(=O)Nc1cccc(C#N)c1)c1c(N)n(CCCC)c(=O)[nH]c1=O (stereo unspecified)	-1%
CC(=O)N1c2ccc(S(=O)(=O)N3CCCC(C(=O)Nc4ccc(F)cc4)C3)cc2CC1C (stereo unspecified)	1%
CCOC(=O)c1cc(C)nc(N2CCCCC2)c1C#N	-17%
Cc1ccc(OCC(=O)NCc2n[nH]c(=O)c3ccccc23)cc1	14%
CCn1c(Cn2nnc(-c3ccccc3)n2)nnc1SCC(=O)Nc1ccccc1	16%
O=C(CSc1nc2c(c(=O)[nH]1)CCCC2)Nc1cccc(O)c1	9%
CCOc1ccccc1NC(=O)C(=O)NCCc1sc(-c2cccc(F)c2)nc1C	12%
Cc1cc(=O)n(CNC(=O)c2ccccc2)c(=S)[nH]1	-6%
CCOC(=O)c1sc(NC(=O)c2ccc3nc[nH]c3c2)nc1C	5%
COc1ccc(Cn2c(O)cc(=O)[nH]c2=O)cc1	-11%
COc1ccc(NC(=O)CCCSc2nc(-c3ccco3)cc(C(F)(F)F)n2)cc1OC	-18%&19%
Cc1cnc(C(=O)OCC(=O)NC2CCCCCC2)cn1	4%
FC(F)(F)c1nnc2ccc(NCc3cccnc3)nn12	-7%
COc1ccc(C(C#N)N2CCCCCC2)cc1OC (stereo unspecified)	6%
O=C(Nc1cc(-c2ccccc2)sc1C(=O)O)c1cccc(F)c1	-2%&-5%
COc1ccc(C2CC(=O)C=C(NCc3ccc4c(c3)OCO4)C2)cc1 (stereo unspecified)	20%
Cc1ccc(S(=O)(=O)NCCC(=O)NC2CCCCCC2)cc1C	8%
O=C(CN1C(=O)COc2ccc(S(=O)(=O)N3CCCC3)cc21)N1CCN(c2cccc(C(F)(F)F)c2)CC1	-1%
Cc1ccccc1C(=O)NC(CC(C)C)C(=O)NCC(C)(C)N1CCOCC1 (stereo unspecified)	-10%
O=C(CCc1c[nH]c2ccccc12)NCCc1ccc2c(c1)OCCO2	3%
CCN1C(=O)c2ccccc2S(=O)c2ccc(C(=O)N3CCN(c4cc(Cl)ccc4C)CC3)cc21 (stereo unspecified)	-1%
COc1ccc(N2CC(C)Cn3c2nc2c3c(=O)n(CCN3CCOCC3)c(=O)n2C)cc1 (stereo unspecified)	-5%

The list continues:
SMILES	VDR inhibitor
O=S(=O)(NCc1csc(-c2cccnc2)n1)c1ccc2c(c1)OCCO2	7%
Cn1c(=O)c2c(SCC(=O)N3CCCCC3)nc(-c3ccccc3F)nc2n(C)c1=O	10%
CCCOCn1cc(F)c(=O)[nH]c1=O	-11%
CCN(CC)C(=O)C1=C(C)Nc2nc3ccccc3n2C1c1ccccc1F (stereo unspecified)	-16%
C=CCN(c1ccccc1C(=O)O)S(=O)(=O)c1ccc(NC(=O)OC)cc1	10%
CCN1CCN(C(=O)c2ccc3c(c2)N(Cc2ccc(Cl)cc2)C(=O)c2ccccc2S3=O)CC1 (stereo unspecified)	-7%
CCOc1ccc(/C(O)=C2/C(=O)C(=O)N(CCOCCO)C2c2ccccn2)cc1 (stereo unspecified)	0%
COc1ccc(CC(=O)OCC(=O)c2c(N)n(C)c(=O)n(C)c2=O)cc1OC	3%
COc1ccc(-c2oc(=O)c3cc(OC)c(OC)cc3c2/C=C/c2cccc([N+](=O)[O-])c2)cc1	2%
Cc1cc(Sc2ccc(Cl)cc2)nc2ccccc12	-11%
CC1=C(C(=O)OC(C)C)C(c2cn(-c3ccccc3)nc2-c2cccs2)NC(=O)N1 (stereo unspecified)	10%
O=C(NCc1ccc2c(c1)OCO2)C1CC(c2ccccc2O)=NO1 (stereo unspecified)	10%
COc1ccc(-c2ccc(-c3noc(-c4cccs4)n3)c(OC)n2)cc1	-2%
O=C(N/N=C/c1ccc(Br)s1)c1c[nH]c2ccccc12	-15%
O=C(CSc1nnc(Cc2ccccc2)o1)N1CCOCC1	-5%
CCOC(=O)c1c(-c2ccc(C)cc2)cn2ccccc12	23%
O=c1[nH]c(C(F)(F)F)nc2ccccc12	22%
COc1ccc(CCC(=O)NCC(=O)OCc2ccccc2)cc1	25%
CS(=O)(=O)N(CC(=O)N1CCCC1)c1ccc(Cl)cc1Cl	-14%
CC(c1ccccn1)N(C)C(=O)c1ccc2nc(Cc3cccc(Cl)c3)oc2c1 (stereo unspecified)	3%
COc1cc(C2CC(=O)N3CN(Cc4ccco4)CSC3=C2C#N)ccc1OCc1ccccc1 (stereo unspecified)	?
Cc1ccc(CSCc2ccc(C(=O)NCCCN3CCOCC3)o2)cc1	7%
c1ccc2c(c1)CSc1ccccc1N2	2%
COc1ccc(C(CC(=O)N2CCCCC2)c2c(O)cc(OC)cc2OC)cc1 (stereo unspecified)	-15%&-21%
CCOC(=O)c1c(C)[nH]c(C)c1C(=O)COC(=O)/C=C/c1ccco1	-8%

Part of the list above in order of SMILES length, low to high:
SMILES	VDR inhibitor
COC(=O)Cn1c2ccccc2c2nc(C)sc21	-12%
Cc1ccc(N=C2N=C(N)c3ccccc32)cc1C	?
COP(C)(=O)c1c(C)nn(-c2ccccc2)c1C (stereo unspecified)	-6%
N#C/C(=C\c1cccc(Cl)c1)C(=O)c1ccccc1	?
O=C(NCCOc1ccccc1)C(=O)c1c[nH]c2ccccc12	2%
CCc1nnc2c(Nc3ccc(N(CC)CC)cc3C)nc3ccccc3n12	-3%
NCCCC[C@@H](C(=O)N1CCNCC1)n1cc(CCC(=O)O)nn1	-6%
O=S(=O)(NCc1csc(-c2cccnc2)n1)c1ccc2c(c1)OCCO2	7%
CCOc1ncccc1C(=O)Nc1cc(S(=O)(=O)N2CCCCC2)ccc1OC	9%
CCOc1ccccc1NC(=O)C(=O)NCCc1sc(-c2cccc(F)c2)nc1C	12%
CCOC(=O)C1=C(C)NC2=C(C(=O)CC(c3cccs3)C2)C1c1cccs1 (stereo unspecified)	-3%
O=C(Nc1ccc(S(=O)(=O)Nc2ncccn2)cc1)c1cc(=O)c2ccccc2o1	6%
Cn1c(=O)c2c(SCC(=O)N3CCCCC3)nc(-c3ccccc3F)nc2n(C)c1=O	10%
COc1ccc(NC(=O)CN2C(=O)CC(c3ccc(C)c(C)c3)=Nc3ccccc32)cc1OC	14%
COc1cc(/C=C/C(=O)OCC(=O)Nc2cc(S(=O)(=O)N3CCOCC3)ccc2Cl)cc(OC)c1OC	8%

Next compounds follow.
SMILES	VDR inhibitor
CC(C)NC(=O)N(C)C[C@H]1Oc2ccc(NS(=O)(=O)c3ccc(Cl)cc3)cc2CC(=O)N([C@@H](C)CO)C[C@@H]1C	-14%
CCNC(=S)NNC(=O)c1ccccn1	6%
CC(C)n1c(C(O)c2ccccc2)nc2ccccc21 (stereo unspecified)	-6%
CCOC(=O)C1CCN(Cc2ccc(Cl)c(Cl)c2)CC1	13%
O=C(Cn1c(=O)[nH]c2ccsc2c1=O)NC1CCCCCC1	0%
CC1CCCCC1NC(=O)CSc1nnnn1-c1ccccc1 (stereo unspecified)	1%
Cc1nc2ccn(Cc3cccs3)c(=O)c2cc1C(=O)NCc1ccc(Br)cc1	-1%
CC1=NN(C(=O)c2ccco2)C(O)(c2ccccc2)C1 (stereo unspecified)	-13%
COCC(=O)Nc1nc(-c2ccccc2)c(C)s1	-1%
O=C(NNC(=O)c1cc(-c2ccccc2)n(-c2ccccc2)n1)c1cccc([N+](=O)[O-])c1	1%
Cc1ccc(N(CC(O)CN2CCCCC2)S(=O)(=O)c2ccc(C)cc2)cc1 (stereo unspecified)	-11%
COC(=O)c1ccccc1NC(=O)CSc1nc(=O)cc(N)n1-c1ccccc1	11%
Cc1ccc(S(=O)(=O)/N=C2/NC(=O)/C(=C/c3cc([N+](=O)[O-])ccc3O)S2)cc1	?
CCOn1c(=O)c(-c2cccc(Br)c2)[n+]([O-])c2ccccc21	13%
CC(=O)Oc1ccc(N(C(C)=O)S(=O)(=O)c2ccc(C)c([N+](=O)[O-])c2)cc1	-25%
COc1ccc(C(NC(=O)C(C)C)c2ccc3cccnc3c2O)cc1 (stereo unspecified)	-8%
Cc1cc(=O)oc2cc(OCC(=O)Nc3c(Cl)cccc3C(F)(F)F)ccc12	-9%
Cn1c(NCCN2CCCCC2)cc(=O)n(C)c1=O	7%
O=C(NCC1CCCO1)c1cccc(S(=O)(=O)N(Cc2ccccc2)c2ccccc2)c1 (stereo unspecified)	11%
CCOC(=O)c1c(C)oc(C)c(C(=O)OCC)c1=O	-1%
O=C(CNC(=O)c1ccccc1F)OCCOc1cccc(Cl)c1	-8%

In another format: 2 of the compounds above.
canonical_smiles,VDR inhibitor
COC(=O)c1ccccc1NC(=O)CSc1nc(=O)cc(N)n1-c1ccccc1,11%
O=C(Cn1c(=O)[nH]c2ccsc2c1=O)NC1CCCCCC1,0%
